Menin MLL FP FL: inhibitors of human menin-MLL interaction, wild-type MLL peptide; Fluorescence polarization, fluorescein-MLL peptide displacement from menin; AID 1766; FP activity change, % at 61.4 µM; 290,000 tested, under 10 active; inconclusive = falling polarisation curve, or a change in total fluorescence; inactive = total fluorescence flat and polarisation flat or rising; no compound was filed as active; the % refers to the polarisation; negative = inhibition;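 further: % of control where 0% means no effect; inhibitors lower the polarisation; unlabelled MLL peptide was the positive control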
gsp agonist: agonists of gsp mutant (McCune-Albright syndrome); gsp mutant cells, cAMP HTRF, 30 min; control for the full effect not named in the record; Potency, µM (doses to about 76.9 µM), without a hit: at the top dose activation (cAMP increase), usual class: activators; actives 0.13% (n = 340,000); active = well fitted activation curve with a large enough effect; inconclusive = small, poorly fitted or top-dose-only effect, or another doubt; inactive = no such curve, though single readings can be large or run the other way; cell line not stated here;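 further: phosphodiesterase inhibitor Ro 20-1724 added with compounds to block cAMP breakdown; potency means the concentration at half of the fitted maximal effect; nearly all actives have a fitted effect of over 60% in size; about a fifth of the inactives were tested at one dose only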
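Cells in DMEM/10% FBS with G418 were pretreated with compounds in DMSO plus […] (300 uM stock) for 30 min at 37C. cAMP was measured by HTRF (cAMP-d2 plus anti-cAMP antibody-K) after 30 min at room temperature.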
D2 agonist: activates the human D2 dopamine receptor; DiscoveRx PathHunter D2 beta-arrestin, luminescence, 90 min; 100% = 57 uM dopamine signal; activation, % (no concentration beside the values); actives 0.084% (n = 360,000); AID 624465; in the data active = activation above about 40%; inconclusive = about 15% to 40%; inactive = below about 15%; further: compound concentration not given in the record; the text of the record calls up to 30% inactive
Target sequence (P14416 whole entry, looked up): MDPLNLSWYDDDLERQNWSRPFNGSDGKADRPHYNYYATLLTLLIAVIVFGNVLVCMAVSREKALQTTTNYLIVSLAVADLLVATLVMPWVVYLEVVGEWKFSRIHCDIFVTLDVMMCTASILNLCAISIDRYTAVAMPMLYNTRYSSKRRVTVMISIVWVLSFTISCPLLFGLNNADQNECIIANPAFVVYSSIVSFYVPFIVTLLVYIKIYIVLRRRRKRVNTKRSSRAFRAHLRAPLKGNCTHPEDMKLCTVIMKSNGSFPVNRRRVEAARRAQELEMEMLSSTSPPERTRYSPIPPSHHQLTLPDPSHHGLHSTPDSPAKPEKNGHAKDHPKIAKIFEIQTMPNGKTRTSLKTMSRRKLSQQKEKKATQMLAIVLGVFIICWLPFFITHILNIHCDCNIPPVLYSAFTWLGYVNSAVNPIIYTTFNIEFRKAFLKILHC
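Agonist mode: compounds alone added to overnight-plated D2 PathHunter cells for 90 min at 37 C, with 57 uM final dopamine (EC100) defining full response. Beta-arrestin recruitment detected by chemiluminescent reagent, read after 1 h at ambient temperature.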
gsp antagonist: gsp mutant antagonism; gsp-mutant cells, cAMP HTRF, 30 min; control for the full effect not named in the record; Potency, µM (top dose mostly 76.9 µM), for inactives: at the highest dose activity change, negative = inhibition, most hits filed as inhibitors; actives 0.4% (n = 340,000); active = falling curve of any shape with a large fitted effect; inconclusive = falling curve, mostly with a smaller effect; inactive = flat or rising curve; cell line not stated here;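 further: intracellular cAMP measured with PDE inhibitor Ro 20-1724 present during compound exposure; potency means the concentration at half of the fitted maximal effect; on the % scale 0 is the no-effect control and ±100 the full control effect; nearly all actives have a fitted effect of over 65% in size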
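HTRF cAMP measurement after 30 min RT detection following 30 min, 37C compound treatment alongside […] (added as 300 uM solution) in G418-selected cells seeded at 2000/well and grown 16–24 h.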
Sfp inh: blocks B. subtilis Sfp PPTase activity | actives 3.5% (n = 310,000) | Potency, µM, without a hit: max response, negative = inhibition, most hits filed as inhibitors | Biochemical Sfp PPTase activity, qHTS | Q9F4F7; active means well fitted inhibition curve with a large enough effect; inconclusive means small, poorly fitted or top-dose-only effect, or another doubt; inactive means no such curve, though single readings can be large or run the other way;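 further: the enzyme is Sfp with the accession as filed and its product quenches rhodamine fluorescence; potency means the concentration at half of the fitted maximal effect; 0% = enzyme reaction without inhibitor and -100% = no enzyme wells; top concentration of the series not given in the record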
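Fluorescence-quenching assay: 15 nM Sfp-PPTase preincubated 15 min at room temperature with compound, then 5 uM rhodamine-CoA and 12.5 uM BHQ-2-labelled YbbR peptide added. Fluorescence (ex 525/em 598 nm) read at start and after 30 min; difference gives rate.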
PINK1 modulator: PINK1 expression modulation. AID 624263. Potency, µM (series often up to 76.6 µM), for inactives: at the top dose activation (PINK1 increase), actives largely listed as activators. PINK1 immunofluorescence, high-content cytometry, 24 h. actives 0.2% (n = 410,000); active = well fitted activation curve with a large enough effect; inconclusive = small, poorly fitted or top-dose-only effect; inactive = flat fitted curve, though single readings scatter; cell line not stated here;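 further: potency means the concentration at half of the fitted maximal effect; % of control where 0% means no effect; nearly all actives have a fitted effect of over 65% in size; a mitochondrial uncoupler was the plate control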
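Fluorescence from anti-PINK1 antibody, together with nuclear and cell stains, was scanned on a laser-scanning cytometer. Before staining, stable-line cells were incubated 24 hours with compounds at 5 concentrations; primary antibody 12 h at 10 degrees C.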
ClpP mod: qHTS Assay for Activators of ClpP | Potency, µM (doses to about 57.5 µM), for inactives: at the top dose activity change, negative = active | actives 1.9% (n = 340,000) | purified B. subtilis ClpP, FRET peptide cleavage, 20 min | ATP-dependent Clp protease proteolytic subunit (Bacillus subtilis (strain 168)), P80244; active = well fitted falling curve with a large enough effect; inconclusive = small, poorly fitted or top-dose-only effect; inactive = no such curve, though single readings can be large or run the other way; further: potency means the concentration at half of the fitted maximal effect; the source files actives as falling curves though it sought activators and does not explain the sign; nearly all actives have a fitted effect of over 65% in size; many hits overshoot -100%
Target sequence (P80244 whole entry, looked up): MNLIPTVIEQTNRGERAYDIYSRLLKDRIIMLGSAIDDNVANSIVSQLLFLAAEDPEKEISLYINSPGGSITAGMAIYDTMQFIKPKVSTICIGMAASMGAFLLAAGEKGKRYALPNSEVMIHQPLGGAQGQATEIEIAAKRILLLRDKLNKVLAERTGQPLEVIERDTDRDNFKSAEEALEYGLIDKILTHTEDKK
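ClpP 10 microg/mL final, pH 8 Tris/KCl buffer with BSA, glycerol, Tween-20; compound pinned in; FRET-FV substrate; RT 20 min; Ex320/Em430; ΔFRET vs ADEP 5.8 microM, DMSO, no enzyme.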
An asterisk follows results filed as active; ? = inconclusive; . = no result given; & = joins results of further samples; [ ] = remark or other dose.

Every second line gives: Menin MLL FP FL, gsp agonist, D2 agonist, gsp antagonist, Sfp inh, PINK1 modulator, ClpP mod
COc1cccc(NC(=O)CN(C)C(=O)CC(C)c2ccccc2)c1 (stereo unspecified)
    ., -40.8%[inhibitor], -7.4, -0.8%, 19.2%, 1.7%, 0.0%
C1COCCNCCOCCOCCOCCN1
    0.1, 11.5%, -1.4, 10.0%, 5.2%, 0.7%, -4.4%
O=C(COc1ccc(F)cc1)NCCNC(=O)COc1ccc(F)cc1
    ., 23.2%, 9.4, 20.2%, ., -0.9%, 1.0%
Cn1c2c(c(=O)n(C)c1=O)CN(CCN1CCNCC1)CN2
    2.7, -14.0%, -2.6, 13.9%, 2.5%, 1.6%, -0.4%
Cc1cc(=O)c(C(=O)Nc2cccc(N3CCCC3=O)c2)nn1-c1ccccc1F
    ., 4.3%, -5.8, 6.9%, ., 0.5%, -0.1%
Clc1cccc(-c2nc(-c3ccccn3)no2)c1
    3.0, -14.2%, -5.3, 1.8%, 3.7%, -1.2%, 0.9%
CCn1cc([N+](=O)[O-])c(C(=O)Nc2ccn(Cc3ccccc3)n2)n1
    -1.3, -24.7%, -3.6, 17.8%, 7.7%, 1.3%, -7.7%
O=C(O)c1ccccc1-c1cn2cc(Cl)ccc2n1
    -8.4, 19.4%[15.4 µM], -0.4, 3.2%, 6.7%, 1.7%, .
O=C(CCc1ccc(S(=O)(=O)N2CCOCC2)cc1)Nc1cc(Cl)ccc1N1CCOCC1
    -0.2, 4.0%, 2.1, -15.8%, 7.9%, 1.5%, -5.4%
COc1cc(C2C(C#N)=C(N)Oc3n[nH]c(-c4cccs4)c32)cc(OC)c1O (stereo unspecified)
    ?, 1.8%[15.4 µM], -0.7, -2.1%, 5.9%, 1.7%, ?
CCN=c1sc(C(=O)OC)cc(=O)n1CC
    2.2, -37.6%[inhibitor], -1.5, 1.8%, 10.3%, ?, 0.9%
CCCC(=O)Nc1cc(S(=O)(=O)N2CCOCC2)ccc1N1CCCCC1
    ., -2.3%[15.4 µM], 3.4, ?, ., 0.4%, 0.9%
O=C1c2ccccc2C2(c3ccccc3)N1CCN2C(=O)C(Cl)(Cl)Cl (stereo unspecified)
    35.2[activator], 4.4%[15.4 µM], 5.5, -13.7%, 5.4%, 7.6%, -1.3%
CC(C)CNC(=O)C1(C)CCCN1C(=O)CSc1ccccc1 (stereo unspecified)
    ., ., -4.1, ., ., 2.7%, 1.3%
CC(C)(C)NS(=O)(=O)c1ccc(/C=C/C(=O)O)cc1
    -4.5, 0.4%, -0.8, 4.4%, 13.0%, 0.4%, 1.3%
Cn1cc(S(=O)(=O)NC[C@H]2O[C@@H](n3ccc(=O)[nH]c3=O)[C@H](O)[C@@H]2O)cn1
    ., ., -2.2, 2.4%, ., 0.1%, 2.0%
CC(C)CCNC(=O)CC1C(=O)N(Cc2ccccc2)C(C)c2nc3ccccc3n21 (stereo unspecified)
    3.1, 10.0%, -2.5, 10.1%, 15.2%, 1.1%, -0.9%
Nc1cc(OC(=O)c2ccccc2Br)nn1S(=O)(=O)c1ccccc1
    5.9, -1.8%, -1.5, 19.4%, ?, 1.0%, -0.8%
O=C1Nc2cc(C(=O)NCCCN3CCCC3)ccc2S/C1=C/c1ccccc1F
    0.4, -27.4%, -2.4, 10.0%, -28.1%, 1.3%, -0.5%
CN1C(=O)CC(Nc2cccc3cccc(N)c23)C1=O (stereo unspecified)
    -29.5, -17.0%, ?, -13.2%, -63.3%, 0.7%, .
O=C(c1nc(SCc2ccc([N+](=O)[O-])cc2)n2ccccc12)C(F)(F)F
    8.5, 20.1%[15.4 µM], -2.3, -5.4%, -3.4%, 7.6%, .
CCOc1cc(C=O)cc(Br)c1OCC(N)=O
    -7.6, 3.4%, -5.3, -20.7%, 26.2%, 3.2%, -0.7%
CN1C(=O)C(=O)/C(=C(/O)c2ccccc2)C1c1ccccc1 (stereo unspecified)
    -1.3, 21.2%, -2.1, -1.3%, 11.0%, 0.4%, -1.6%
CCOC(=O)N1CCC(=NNS(=O)(=O)c2cccc([N+](=O)[O-])c2)CC1
    3.5, 5.9%, -4.1, -0.6%, 56.2µM*, 1.0%[38.3 µM], 0.0%
COC(=O)CSC1=C(C#N)C(c2ccc(C)o2)CC(=O)N1 (stereo unspecified)
    -0.5, 8.9%, -8.5, 8.4%, -11.7%, 11.9%, .
CC(C)(CO)NCc1cccs1
    -1.6, 0.3%, 8.4, 6.4%, 8.5%, 1.4%, 1.1%
CCOC(=O)/C=c1\s/c(=C\c2ccc3cc(OC)ccc3c2)c(=O)n1CC(=O)NCC1CCCO1 (stereo unspecified)
    -2.1, 9.4%, -1.7, 5.9%[15.4 µM], 4.3%, 8.2%, ?
C#CCOc1ccc(Cl)cc1/C=C1/C(=O)ON=C1C
    -6.5, 0.7%, 0.5, -3.1%, 50.1µM*, 1.7%, .
COc1ccccc1-c1nn(Cc2ccccc2)cc1/C=C/C(=O)O
    -0.6, -43.8%, -2.7, -14.0%, 13.5%, 0.8%, 1.8%
O=C(CCCN1C(=O)/C(=C\c2cccs2)SC1=S)Nc1cccnc1
    5.3, 36.6%, 1.2, -7.4%, 14.0%, ?, -3.6%
CCOc1ccc2nc(SCC(=O)N(CCOC)c3c(N)n(Cc4ccccc4)c(=O)[nH]c3=O)[nH]c2c1
    ., 17.0%, -5.7, 3.3%, ., 1.7%, 0.8%
CC(=O)Nc1cccc(NC(=O)C2CCCN2C(=O)Nc2ccccc2C)c1 (stereo unspecified)
    -5.5, -40.2%[inhibitor], -0.2, 5.8%, 11.3%, ., 13.9%
COc1ccc(C(=O)Nc2cc(-c3nn4c(C)nnc4s3)ccc2C)cc1
    3.3, 23.8%, 1.0, -19.9%, 4.4%, 5.4%, -0.2%
O=C(CCc1nc2ccccc2c(=O)[nH]1)Nc1nnc(SCc2ccc(F)cc2)s1
    ., -2.9%, -1.8, 6.8%, ., -0.3%, -0.5%
Cc1cc2cc(C(c3nnnn3CC3CCCO3)N3CCCc4ccccc43)c(=O)[nH]c2cc1C (stereo unspecified)
    ., -45.9%[inhibitor], -4.9, -17.1%, 1.41µM*, 1.0%[38.3 µM], -5.6%
CN(Cc1ccccc1)C(=O)C1CCC(CNS(=O)(=O)c2cccc3cccnc23)CC1 (stereo unspecified)
    -0.8, -0.3%, -2.0, -2.6%, -1.1%, -0.5%, -1.7%
C[C@@H](C(=O)N=c1sc2ccccc2n1C)N1C(=O)C2CC=CCC2C1=O (stereo partly specified)
    ., ?, -1.0, -20.9%, ., 4.2%, .
COc1cc(OC)cc(C(=O)NCCNc2nc3cc(C)cc(C)c3cc2C#N)c1
    0.0, -22.0%, -2.7, 1.0%, -3.3%, 2.7%, 4.3%
Clc1ccc(Cn2ncc3c(NCCN4CCOCC4)ncnc32)cc1
    2.0, 1.9%, -0.3, 9.3%, 8.6%, 1.7%, 2.3%
O=[N+]([O-])c1ccccc1OCC(O)CNC1CCCC1 (stereo unspecified)
    2.0, -4.9%, -2.5, 13.1%, 14.3%, -0.3%, 1.1%
Cn1c(-c2ccc(C=O)s2)nc2ccccc21
    6.7, ?, -1.8, -2.6%, 8.8%, 8.8%, 127.2%
COc1cc(C(=O)OCCC(C)C)cc(OC)c1O
    0.4, -1.6%, 2.1, -1.7%, ?, 6.1%, -2.3%
O=C(CN1CCOc2ccccc21)N1CCCC1
    3.2, -3.1%, -1.7, -1.6%, 7.8%, -1.0%, 1.4%
CSc1nc2nc(-c3ccccc3)cc(=O)n2[nH]1
    1.5, ?, -3.8, 2.6%, 28.2%, -0.9%, -1.5%
CC(C)Cn1c(N)cc(=O)n(C)c1=O
    -0.6, 5.5%, 0.5, 6.9%, 12.1%, -0.1%, .
Cc1ccnc(NC(=O)CCS(=O)(=O)c2ccccc2)c1
    -2.2, -12.2%[15.4 µM], -6.0, 5.1%, 15.5%, 0.5%, .
CCCCc1cn([C@@H](CCCCN)C(=O)N2CCNCC2)nn1
    ?, 0.3%, -2.4, 8.8%, 15.7%, 1.2%, -0.8%
CN1N=C(C(=O)N2CCCC(Nc3ccc(F)c(F)c3)C2)CCC1=O (stereo unspecified)
    ., -6.5%, -3.9, -7.3%, 12.7%, 2.1%, -0.3%
CCOC(=O)c1cc(-c2ccc(Cl)cc2)nc2c1c(=O)[nH]c(=O)n2CCOC
    -12.1, -17.0%, -2.6, -7.9%, 8.7%, 3.7%, 3.8%
O=C(NCCc1ccccc1)c1ccc2nc(-c3ccco3)c(-c3ccco3)nc2c1
    58.8[activator], 13.1%, 4.1, 2.5%, 25.1µM*, -3.8%, -11.2%
Nc1nc2ccccc2n1/N=C/c1ccc(Br)cc1
    0.5, 2.4%, -2.4, -8.2%, 7.6%, 2.0%, 1.5%
O=C(NC(=S)N1CCOCC1)c1ccc(F)cc1
    ., 20.6%, -6.4, 11.2%, 13.0%, -0.4%, 0.4%
CC(=O)N1CCCc2cc(S(=O)(=O)CCC(=O)N3CCN(c4cccc(C)c4)C(C)C3)ccc21 (stereo unspecified)
    0.5, 5.7%, 4.8, -20.1%, 5.6%, 0.4%, -0.5%
COc1cccc(N(C(=O)CNC(=O)c2ccco2)C(C(=O)NC2CCCCC2)c2cccnc2)c1 (stereo unspecified)
    1.8, 13.6%, 3.8, 3.4%, 7.4%, 1.1%, .
COC(=O)c1cn(CC(=O)Nc2ccc(F)cc2)c2ccccc12
    1.5, 26.7%, -4.6, -1.8%, 15.2%, 9.2%, .
Cc1ccsc1/C=N\Nc1cn[nH]c(=O)c1Cl
    3.4, ?, -2.7, -4.0%, -29.9%, -3.9%, .
O=C(Nc1ccc2ccccc2n1)Nc1ccccc1F
    2.9, 29.4%, 1.7, 5.0%, 6.7%, -1.1%, -1.1%
Cc1[nH]ccc2c1[nH]c1cc(=O)ccc12
    -3.2, -8.2%, 0.8, 3.2%, 2.4%&-4.7%&7.4%&15.5%, -0.3%, .
Cc1ccc(SCC(=O)NCC(C)C)cc1
    -1.7, -4.4%, -2.6, -7.6%, 3.8%, -1.4%, 1.6%

High-throughput results from PubChem.
